Screening data as filed in PubChem.
Vif A3G: inhibitors of Vif binding to APOBEC3G peptide, primary screen, biochemical, TR-FRET, GST-Vif 1-94, biotin-A3G peptide, dose response retest (AID 1117319); TR-FRET GST-Vif / biotin-A3G peptide binding; higher % means a stronger effect; test concentration not given here; strong numbers were not always called active; inhibition, %; hits with a dose series show IC50 in µM; 0.57% of 260,000 active;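 active means above the screen mean plus three standard deviations and confirmed in dose response; inconclusive means results disagree or hit not tested in dose response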;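 further: Vif residues 1-94 fused to GST binding biotinylated APOBEC3G peptide 110-148; 0% = full assay without inhibitor and 100% = GST in place of GST-Vif; retest series ran down from 100 µM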
Active calls of the source: *; ? = inconclusive; & = joins results of further samples.

SMILES | Vif A3G
Cn1c(=O)c2c(nc(CN3CCN(Cc4ccccc4)CC3)n2Cc2ccccc2)n(C)c1=O | 0%
Cc1ccc2[nH]c3c(N4CCN(Cc5ccc6c(c5)OCO6)CC4)ncnc3c2c1 | 31%
COc1cc(OC)c(-c2nn3c(-c4ccco4)nnc3s2)cc1OC | 23%
N#CCCSc1ccccc1NC(=O)c1ccc(S(=O)(=O)N2CCCC2)cc1 | 2%
CC(=O)C(Sc1nc(-c2ccc(F)cc2)nc2c1c(=O)n(C)c(=O)n2C)C(C)=O | 8%
O=[N+]([O-])C1C(c2ccccc2)C12c1ccccc1-c1ccccc12 (centres undefined) | 0%
CC(C)(C)[Si](OCC[C@@H]1C[C@@]1(C)[C@@H](NP(=O)(c1ccccc1)c1ccccc1)c1ccccc1)(c1ccccc1)c1ccccc1 | -7%
O=C(Nc1nnc(C2CC2)s1)c1cc2c(s1)CCCCCC2 | 1%
Cc1ccc2cc(C)c3nnc(SCC(=O)Nc4nc5c(s4)CCCC5)n3c2c1 | 15%
CCOC(=O)CN(C(=O)CSc1nnc2c(n1)[nH]c1c(C)cc(C)cc12)c1ccccc1 | -9%
O=C(O)Cn1c2ccccc2c2nc3ccccc3nc21 | 1%
COCCCNC(=O)C[C@H]1C[C@H](C(=O)N2CCCCC2)[C@@]2(CCc3ccccc3)c3[nH]c4cc(CCC(=O)N(C)C)ccc4c3CCN2C1=O | -3%
Cc1cc2nnc(SCCCCN3C(=O)c4ccccc4C3=O)n2c2ccccc12 | 4%
O=C(CN1C(=O)C2CCCN2c2ncc(Cl)cc21)NCc1ccc2c(c1)OCO2 (centres undefined) | 30%
CCCN1C(=O)c2cc(C(=O)NCc3cccs3)ccc2C1O (centres undefined) | -5%
COc1ccc(NS(=O)(=O)c2ccc(NC(=O)c3cnn4c(C(F)F)cc(-c5ccc(C)cc5)nc34)cc2)cc1 | 2%
CS(=O)(=O)N(CC(=O)NCc1ccncc1)Cc1ccc(Cl)cc1 | 11%
O=C(O)CN(CCO)CCN(CC(=O)O)CC(=O)O | 32%
Cc1ccc(N=Nc2c(O)c3ccccc3[nH]c2=O)c(S(=O)(=O)N(C)C)c1 | ?
NC(=O)NC[C@@H]1CC[C@@H](Cc2ccc(-c3ccccc3)cc2)O1 | 6%
CN(C)c1ccc2c(c1)C(=NO)c1ccccc1-2 | -3%
O=c1cc2oc3cc(O)c(O)cc3c(-c3ccccc3O)c-2cc1O | 0.84µM*
O=C1N=C2N(CCN3CCCCC3)c3ccccc3N2/C1=C\c1ccc([N+](=O)[O-])o1 | -6%
O=[N+]([O-])c1ccc(N=Nc2ccc(O)c3ccccc23)cc1 | 7%
C#CCOCCOCCOCCNc1nc(N2CCN(C(=O)Cn3cc(CCCN=C(N)N)nn3)CC2)nc(N2CCN(C(=O)[C@H]([C@@H](C)CC)n3cc(CCCN=C(N)N)nn3)CC2)n1 | -2%
COc1ccccc1-c1sc2cc3c(cc2c1-c1ccc(OCCN2CCOCC2)cc1)OCO3 | -8%
CC(=O)Nc1cccc(NC(=O)c2sc3ncn(CC(=O)N4CCCCC4)c(=O)c3c2C)c1 | -5%&2%
O=C(CN1CCOCC1)N1CCN(c2ccc3ccccc3n2)CC1 | -9%
Cc1cccn2c(=O)c3cc(C#N)c(=O)n(Cc4cccnc4)c3nc12 | 0%
OC[C@@H]1[C@@H](c2ccccc2)C(c2ccc(F)cc2)=NN1c1ccccc1 | -5%

3 entries out of the list, arranged by length of the SMILES, descending:
SMILES | Vif A3G
C#CCOCCOCCOCCNc1nc(N2CCN(C(=O)Cn3cc(CCCN=C(N)N)nn3)CC2)nc(N2CCN(C(=O)[C@H]([C@@H](C)CC)n3cc(CCCN=C(N)N)nn3)CC2)n1 | -2%
COCCCNC(=O)C[C@H]1C[C@H](C(=O)N2CCCCC2)[C@@]2(CCc3ccccc3)c3[nH]c4cc(CCC(=O)N(C)C)ccc4c3CCN2C1=O | -3%
O=C(Nc1nnc(C2CC2)s1)c1cc2c(s1)CCCCCC2 | 1%

Later entries.
SMILES | Vif A3G
S=c1nc(-c2ccccc2)n(Cc2ccco2)c2c1CCCC2 | 15%
CCn1c(N2CCN(CC(=O)c3ccc(OC)cc3)CC2)nc2ccccc21 | 2%
O=c1[nH]c(=S)[nH]c(O)c1/C=C1\C=Nc2ccccc21 | -4%
O=C1CSC(c2ccc(F)cc2)N1c1nnc(C23CC4CC(CC(C4)C2)C3)s1 (centres undefined) | -1%
CCOc1ccc(N=Cc2ccc(N(C)C)cc2)c(O)c1 | 17%
Cc1[nH]c2ccccc2c1C(=O)CN1CCN(C2CCCCC2)CC1 | -2%
Cc1cc2cc(C)c3nnc(SCC(=O)N4CCc5ccccc54)n3c2cc1C | 22%
CCN1C(=O)/C(=C/c2cnn(C)c2C)SC1=S | ?
CC[C@]12c3[nH]c4cc(-c5ccco5)ccc4c3CCN1C(=O)[C@@H](CC(=O)NCCC1=CCCCC1)C[C@@H]2C(=O)N1CCN(C(=O)c2ccco2)CC1 | 6%
Cc1ccc2nc(NC3=NCN(Cc4cccnc4)CN3)nc(C)c2c1 | 0%
COC(=O)C1=C(NC(=O)c2cccs2)CCS1 | -4%
O=C1C=CC(=O)N1c1ccc(-c2nc3ccccc3o2)cc1 | -5%
CCCOc1ccc(C(=O)CCC(=O)OCC(=O)Nc2cc(C)on2)cc1 | 31%
CCCCN(CCCC)C(=O)CSc1nnc2n(C)c(=O)c3c4c(sc3n12)CCCC4 | 10%
O=c1c2c3nc4ccccc4nc3n(Cc3ccccc3)c2ncn1Cc1ccco1 | ?
Cn1c(Oc2ccc(Cl)c3cccnc23)nc2c1c(=O)n(Cc1ccccc1Cl)c(=O)n2C | 7%
Cn1c(=O)[nH]c(=O)c2c1nc(NC1CCCCC1)n2CC(=O)NC1CCCCC1 | -4%
CCOC(=O)C1=C(O)/C(=C/c2ccc(-c3ccccc3C(=O)O)o2)SC1=Nc1ccc(OC)cc1 | 11%
O=C(Cn1c(CSc2ccccc2)nc2ccccc21)Nc1ccccc1 | -1%
N=C1/C(=C\c2ccc(OCc3ccccc3)cc2)C(=O)N=C2SC(N3CCCC3)=NN12 | -3%
CC(C)(C)C(=O)Nc1ccnc(-c2cccnc2)n1 | -6%
O=C1c2ccccc2C(=O)N1c1ccc(-c2nc3ccccc3o2)cc1 | 29%
NC(=O)CC[C@@H]1NC(=O)[C@H](Cc2ccccc2)NC(=O)[C@H](Cc2ccc(O)cc2)NC(=O)[C@@H](N)CSSC[C@@H](C(=O)N2CCC[C@H]2C(=O)N[C@@H](CCCN=C(N)N)C(=O)NCC(N)=O)NC(=O)[C@H](CC(N)=O)NC1=O | 4%
O=[N+]([O-])c1cccc(-c2nc(N3CCOCC3)c3ccccc3n2)c1 | 1%
N#Cc1c(-c2ccc(Cl)cc2)n(O)c2ccccc12 | -1%
CCCCCCN1C[C@H](O)[C@@H](n2cc(COC(=O)c3ccccc3)nn2)C[C@@H]1c1ccc(Cl)cc1 | 2%
CCOc1ccc(C=NNc2ccc(S(=O)(=O)Nc3ccccc3C(=O)O)cc2[N+](=O)[O-])cc1OC | 3%
CCOC(=O)CN1C(=O)N[C@@H](c2ccc(Br)cc2)C(C(C)=O)=C1C | ?
Clc1ccc(-c2nnc3sc(-c4ccccn4)nn23)cc1 | -5%
Nc1nc(SCC(=O)NC2CCCC2)[nH]c(=O)c1-c1ccccc1 | -3%
Cc1cccc(-c2cc(C(=O)NCCCn3ccnc3)c3ccccc3n2)c1 | -5%
Cc1ccc2c3c(c(SCC(=O)Nc4nccs4)nc2c1)CCCC3 | -5%
O=C(NC1CC1)c1ccc2c(c1)NC(=O)c1ccccc1S2 | 18%
C#CCOCCOCCOCCNc1nc(N2CCN(C(=O)[C@H](Cc3cc4ccccc4[nH]3)n3cc([C@@H](N)Cc4ccc(O)cc4)nn3)CC2)nc(N2CCN(C(=O)[C@H](Cc3cc4ccccc4[nH]3)n3cc([C@@H](N)CC(C)C)nn3)CC2)n1 | 5%
CC1CCN(C(=O)c2ccccc2NC(=O)c2cccc(S(=O)(=O)N3CCOCC3)c2)CC1 | 10%
CCOC(=O)c1cnc2c(-c3ccc(F)cc3)cnn2c1C(F)(F)F | -11%
CCN(CC)C(=O)[C@H]1C[C@H](CC(=O)NCc2cccc(C(F)(F)F)c2)C(=O)N2CCc3c([nH]c4cc(-c5ccco5)ccc34)[C@]12C | 2%
O=c1[nH][nH]c2c(N=Cc3ccccc3O)ccc(F)c12 | 0.87µM*
COc1ccc2sc(-c3ccccc3OC)c(-c3ccc(OCCN4CCOCC4)cc3)c2c1 | -16%
O=S(=O)(Nc1cccc(CCc2ccccn2)c1)c1ccc2ccccc2c1 | 11%
COc1ccccc1[C@H]1C(c2ccccc2)=NN(c2ccccc2)[C@@H]1CO | 2%
O=C(O)C(O)c1ccco1 (centres undefined) | ?
CN(C(=O)c1cccc(C#N)c1)c1nnc(-c2ccncc2)s1 | -1%
CCOC(=O)c1ccc(-c2cccc(-c3cc(=O)oc4cc(OC)cc(OC)c34)c2)cc1 | -3%
CCCn1c(=C(C#N)C#N)s/c(=C2\C=Cc3ccccc3N2CC)c1=O | -3%&-3%
CC(=O)OC[C@H]1O[C@H](CCO/N=C(\C)CCN2CCCc3nc(C)c(C)cc32)C=C[C@@H]1OC(C)=O | 7%
CN1CCN(C2=CC3=CC(=C(C#N)C#N)CCC3CC2)CC1 (centres undefined) | 11%
N#CC1=C(S)N(c2ccc(F)cc2)C(c2cccs2)NC1=O (centres undefined) | 3%
COc1ccc(C2c3c(oc4ccccc4c3=O)C(=O)N2Cc2ccncc2)cc1 (centres undefined) | 1%
O=C(C1CC1c1ccccc1)N1CCN(c2cccc(Cl)c2)CC1 (centres undefined) | 3%

Reformatted with tabs: part of the list above
smiles	Vif A3G
CCOC(=O)CN(C(=O)CSc1nnc2c(n1)[nH]c1c(C)cc(C)cc12)c1ccccc1	-9%
O=C(O)Cn1c2ccccc2c2nc3ccccc3nc21	1%
COCCCNC(=O)C[C@H]1C[C@H](C(=O)N2CCCCC2)[C@@]2(CCc3ccccc3)c3[nH]c4cc(CCC(=O)N(C)C)ccc4c3CCN2C1=O	-3%
Cc1cc2nnc(SCCCCN3C(=O)c4ccccc4C3=O)n2c2ccccc12	4%
O=C(CN1C(=O)C2CCCN2c2ncc(Cl)cc21)NCc1ccc2c(c1)OCO2 (centres undefined)	30%
CCCN1C(=O)c2cc(C(=O)NCc3cccs3)ccc2C1O (centres undefined)	-5%
COc1ccc(NS(=O)(=O)c2ccc(NC(=O)c3cnn4c(C(F)F)cc(-c5ccc(C)cc5)nc34)cc2)cc1	2%

The list goes on.
SMILES | Vif A3G
CCC(c1ccc(O)c(O)c1)C(CC)c1ccc(O)c(O)c1 (centres undefined) | 6.5µM*
Cc1n[nH]c(C)c1CCc1nc2c3ccccc3nc(SCC(N)=O)n2n1 | 10%
Cc1ccc2oc3c(c(=O)c2c1)C(c1cccc(Br)c1)N(Cc1ccco1)C3=O (centres undefined) | 29%&3%
CN1CCN(S(=O)(=O)c2ccc(NC(=S)NC(=O)c3ccc(Cl)cc3)cc2)CC1 | 81µM*
O=C(O)CCCNCc1ccccc1F | 4%
COCCn1c(CN2CCN(c3ccc(F)cc3)CC2)nc2c1c(=O)n(C)c(=O)n2C | -5%
COC(=O)c1cc2occc2n1Cc1c(F)cccc1Cl | -4%
CCOC(=O)c1cnc2ccc(Br)cc2c1NCC(C)O (centres undefined) | -57%
CC1CCCC(NC(=O)COC(=O)Cc2cn3ccsc3n2)C1C (centres undefined) | 2%
CCC(C)(C)n1nnnc1C(c1ccc(N(C)C)cc1)N1CCN(C2CCCCC2)CC1 (centres undefined) | -5%

Copied from the listing, 2 compounds:
SMILES | Vif A3G
CCC(c1ccc(O)c(O)c1)C(CC)c1ccc(O)c(O)c1 (centres undefined) | 6.5µM*
Cc1n[nH]c(C)c1CCc1nc2c3ccccc3nc(SCC(N)=O)n2n1 | 10%

Random excerpt: 2 records from the list.
SMILES | Vif A3G
CCCn1c(=C(C#N)C#N)s/c(=C2\C=Cc3ccccc3N2CC)c1=O | -3%&-3%
O=c1[nH][nH]c2c(N=Cc3ccccc3O)ccc(F)c12 | 0.87µM*

More compounds
SMILES | Vif A3G
CN(C)CCC(C(=O)c1ccccc1)c1ccccn1 (centres undefined) | 1%
CCN(CC)CCNC(=O)c1ccc(NC(=O)c2ccc(Cl)c(S(=O)(=O)Nc3ccccc3OC)c2)cc1 | -5%
CCC(=O)Nc1ccc(C(=O)Cn2nc(C(=O)O)c3ccccc3c2=O)cc1 | 6%
COc1cc2sc(-c3ccccc3OC)c(-c3ccc(OCCN4CCOCC4)cc3)c2cc1OC | 2%
O=C(CN(C1CC1)S(=O)(=O)c1ccc(S(=O)(=O)NC2CCCCC2)cc1)Nc1ccccc1 | 19%
CC(C)C(NC(=O)C1CCCCC1)C(=O)NC1CCN(Cc2ccccc2)CC1 (centres undefined) | -1%
O=C1N/C(=N/NC(=O)c2cccc3ccccc23)S/C1=C\c1ccccc1OCc1ccccc1 | 24%
CCN(CC)c1ccc2cc(-c3nnc(-c4ccncc4)o3)c(=O)oc2c1 | -10%&2%
O=C(C1CCN(S(=O)(=O)c2cccc3cccnc23)CC1)N1CC=C(c2ccccc2)CC1 | 2%
CN(C)c1ccc(/C=C2/C(=O)N(c3ccc([N+](=O)[O-])cc3)N=C2N2CCOCC2)cc1 | 6%
CN(C)c1ccc(-c2nn3c(-c4ccc(Cl)cc4Cl)nnc3s2)cc1 | -1%
CC1Cc2ccccc2N1C(=O)CSc1nc(N)cc(=O)[nH]1 (centres undefined) | -1%
COc1ccc(N=c2scc(-c3ccc(S(=O)(=O)N4CCOCC4)cc3)n2CCCO)cc1 | 32%
O=C(CCc1nc2ccccc2[nH]c1=O)OCC(=O)c1cccc2ccccc12 | -6%
O=c1/c(=C/c2cn(-c3ccccc3)nc2-c2ccc(F)cc2)sc2nc3ccccc3n12 | 0%
CCCn1c(SCC(=O)c2cc(OC)ccc2OC)nc2c1c(=O)n(C)c(=O)n2C | -2%
COc1ccccc1-c1sc2ccccc2c1-c1ccc(OCCN2CCCCC2)cc1 | -8%
CCCN1CCN(C(=O)c2cc3c(s2)-c2ccccc2S(=O)(=O)C3)CC1 | -5%
C/C(CCN1CCCCc2nc(C)c(C)cc21)=N\O[C@@H](C)c1cn([C@H](CO)Cc2ccccc2)nn1 | 20%

Some of the compounds tested, so the mix of outcomes need not match the whole.
